From PubChem
PABP FP inh: PABP-poly(A) binding inhibition. PABP-poly(A) RNA binding, fluorescence polarization. inhibition, % at 35 µM. 290,000 tested, 1% active;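 active = 50% or more with normal probe brightness, or confirmed in later tests; about a fifth of its hits are not listed in these tables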;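 note: calls also rest on retests at 20 µM and on dose response follow-up; controls were probe without protein and protein plus probe with vehicle; some compounds called inactive have numbers as strong as hits; many hits fall short of the cut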
Target sequence (P11940 whole entry, looked up): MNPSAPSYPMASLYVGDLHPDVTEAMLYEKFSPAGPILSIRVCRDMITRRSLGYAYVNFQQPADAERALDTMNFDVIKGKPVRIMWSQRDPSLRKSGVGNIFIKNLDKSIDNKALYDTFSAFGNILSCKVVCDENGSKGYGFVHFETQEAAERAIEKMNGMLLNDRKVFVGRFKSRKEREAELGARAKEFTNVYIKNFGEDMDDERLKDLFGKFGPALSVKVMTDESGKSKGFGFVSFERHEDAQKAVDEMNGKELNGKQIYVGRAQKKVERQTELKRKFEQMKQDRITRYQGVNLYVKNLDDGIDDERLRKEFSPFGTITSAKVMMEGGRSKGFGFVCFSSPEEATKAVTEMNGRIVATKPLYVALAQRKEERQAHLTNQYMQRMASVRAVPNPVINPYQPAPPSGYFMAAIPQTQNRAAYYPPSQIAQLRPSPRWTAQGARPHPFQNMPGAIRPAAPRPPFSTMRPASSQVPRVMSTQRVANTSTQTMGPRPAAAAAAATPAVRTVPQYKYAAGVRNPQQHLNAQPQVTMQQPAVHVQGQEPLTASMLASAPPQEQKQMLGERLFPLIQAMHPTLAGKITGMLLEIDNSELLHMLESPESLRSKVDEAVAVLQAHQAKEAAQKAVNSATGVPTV
CSC inhib: blocks cancer stem cells. cancer stem cell-like cells viability, luminescence. inhibition, % at 7.5 µM. 300,000 tested, 1.1% active. AID 2717;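 active = mean at 75% or more and at least half the replicates too; tested in HMLE shEcad cells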;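 note: 0% = median of negative and 100% = median of positive control wells; the first replicate is given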
Rce1 inhib: inhibitors of yeast Ras-converting enzyme. Q03530. yeast membranes, quenched prenylated peptide cleavage fluorescence. calls only. 290,000 tested, 0.27% active;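 active = fall in fluorescence gain of 50% or more versus controls, with final raw signal at or below 3038400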;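 note: plate controls were neutral control wells for no effect and wells lacking membranes for full effect; tested at 10 µM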
Target sequence (Q03530 whole entry, looked up): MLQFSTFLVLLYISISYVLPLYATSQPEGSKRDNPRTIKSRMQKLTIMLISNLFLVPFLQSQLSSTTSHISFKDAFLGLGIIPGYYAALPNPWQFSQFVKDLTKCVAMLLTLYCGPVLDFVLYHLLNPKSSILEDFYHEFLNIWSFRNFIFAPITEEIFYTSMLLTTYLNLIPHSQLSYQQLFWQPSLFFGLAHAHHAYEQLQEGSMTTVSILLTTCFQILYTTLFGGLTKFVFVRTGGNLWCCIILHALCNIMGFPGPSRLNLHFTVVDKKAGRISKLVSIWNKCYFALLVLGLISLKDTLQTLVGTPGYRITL
Env fusion inh: blocks HIV Env-driven cell-cell fusion; HeLa-JRFL Env/CEM21 cell fusion, luciferase; inhibition, % at 12.3 µM; AID 651610; 360,000 tested, 1.1% active;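 active = mean replicate inhibition score of at least 50 and every replicate individually at or above 50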;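 note: 0% = plate neutral controls and 100% = maraviroc near 300 nM; one replicate is shown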
UUG fidelity: alters start codon recognition fidelity in yeast. AID 602363. activity score, % at 18.7 µM. 350,000 tested, 0.13% active. S. cerevisiae UUG-firefly luciferase reporter, luminescence/redox ratio;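 active = replicate mean at a twofold rise or more, about +100% in these data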;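 note: firefly luciferase made from a UUG start codon reports start codon fidelity; reporter light over untreated wells divided by growth signal over untreated wells; some hits fall short of that in this replicate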
eIF4H FP inh: inhibitors of RNA binding by human eIF4H; Q15056; eIF4H fluorescence polarization binding assay; 290,000 tested, 0.94% active; inhibition, % at 35 µM;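 active = 50% or more with normal probe brightness, or confirmed in later tests; about a fifth of its hits are not listed in these tables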;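 note: calls also rest on retests at 20 µM and on dose response follow-up; 0% = protein and probe with vehicle and 100% = probe without protein; strong numbers were not always called active; many hits fall short of the cut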
MT1-MMP act inh: MT1-MMP (human) activation inhibition | P50281 | 360,000 tested, 0.061% active | GFP/RFP ratio change, % at 20 µM | HT1080 RFP-PRO-GFP cells, GFP/RFP ratio fluorescence, overnight; percent of plate control window, DMSO zero;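 active = GFP/RFP ratio change of at least 30% with cell ATP level not reduced by more than half and red fluorescence within 50% of control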; note: strong numbers were not always called active
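system = RFP-PRO-GFP reporter HT1080 cells | dosing = 20 µM single dose, 1% DMSO | timing = overnight cell settling, then overnight compound exposure, 37 °C, 5% CO2 | read-out basis = GFP/RFP fluorescence ratio | controls = DMSO and RFP-L50D-GFP cell wells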
MT1-MMP act inh RFP: recorded beside MT1-MMP act inh, whose call it bears; RFP signal change, %; measured here: RFP expression control read;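 0 = vehicle wells; hits needed this value within 50% of zero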
An asterisk follows results filed as active; i = inactive; nt = no result given.

A first look:
SMILES | PABP FP inh | CSC inhib | Rce1 inhib | Env fusion inh | UUG fidelity | eIF4H FP inh | MT1-MMP act inh | MT1-MMP act inh RFP
Cc1ccc(C(=O)Nc2ccc(S(=O)(=O)NC3=NCCCCC3)cc2)c(C)c1 | nt | 6 | i | -2 | nt | nt | 1 | -2
Cc1ccc(N2C(=O)c3ccccc3NC2(C(=O)O)c2ccccc2)cc1Cl (stereo unspecified) | 2 | 14 | i | -95 | 2 | 4 | -3 | 1
Cc1csc(N(C(=O)c2cccc(S(=O)(=O)N(C)C)c2)c2ccccc2)n1 | -4 | 6 | i | 28 | -13 | -2 | -1 | -1
CCOC(=O)c1cc(C(C)(C)C)n(CCCN2CCOCC2)c1C | -7 | 9 | nt | 14 | nt | -6 | -6 | -1
COc1ccc(C(=O)NC2CCCc3c2cnn3-c2cc(F)cc(F)c2)c(OC)n1 (stereo unspecified) | -4 | 1 | i | 3 | -12 | -2 | -3 | 4
COc1cccc(OC)c1C(=O)NCCc1ccccc1 | nt | -19 | i | 2 | nt | nt | 2 | 7
N#CCC(=O)N/N=C/c1ccc(Cl)cc1 | -1 | -7 | i | -9 | -8 | -4 | 1 | 2
Cn1c(=O)cc(N)n(-c2ccccc2)c1=O | 6 | 0 | i | -5 | -9 | 2 | -1 | 3
CC1CCCN(C(=O)CCCC(=O)N2CCCC(C)C2)C1 (stereo unspecified) | 6 | -12 | i | 12 | 2 | 0 | -1 | 2
COc1cnc(-c2ccccc2)nc1Oc1ccc(C(C)(C)C)cc1 | -18 | 49 | i | -89 | -1 | 9 | -1 | -5

The list itself, from the start:
SMILES | PABP FP inh | CSC inhib | Rce1 inhib | Env fusion inh | UUG fidelity | eIF4H FP inh | MT1-MMP act inh | MT1-MMP act inh RFP
Cc1ccc(C(=O)Nc2ccc(S(=O)(=O)NC3=NCCCCC3)cc2)c(C)c1 | nt | 6 | i | -2 | nt | nt | 1 | -2
Cc1ccc(N2C(=O)c3ccccc3NC2(C(=O)O)c2ccccc2)cc1Cl (stereo unspecified) | 2 | 14 | i | -95 | 2 | 4 | -3 | 1
Cc1csc(N(C(=O)c2cccc(S(=O)(=O)N(C)C)c2)c2ccccc2)n1 | -4 | 6 | i | 28 | -13 | -2 | -1 | -1
CCOC(=O)c1cc(C(C)(C)C)n(CCCN2CCOCC2)c1C | -7 | 9 | nt | 14 | nt | -6 | -6 | -1
COc1ccc(C(=O)NC2CCCc3c2cnn3-c2cc(F)cc(F)c2)c(OC)n1 (stereo unspecified) | -4 | 1 | i | 3 | -12 | -2 | -3 | 4
COc1cccc(OC)c1C(=O)NCCc1ccccc1 | nt | -19 | i | 2 | nt | nt | 2 | 7
N#CCC(=O)N/N=C/c1ccc(Cl)cc1 | -1 | -7 | i | -9 | -8 | -4 | 1 | 2
Cn1c(=O)cc(N)n(-c2ccccc2)c1=O | 6 | 0 | i | -5 | -9 | 2 | -1 | 3
CC1CCCN(C(=O)CCCC(=O)N2CCCC(C)C2)C1 (stereo unspecified) | 6 | -12 | i | 12 | 2 | 0 | -1 | 2
COc1cnc(-c2ccccc2)nc1Oc1ccc(C(C)(C)C)cc1 | -18 | 49 | i | -89 | -1 | 9 | -1 | -5
CC(C)[C@H](NC(=O)c1ccccc1)C(=O)OCC(=O)N1CCCCCC1 | 4 | -12 | i | -15 | 6 | 3 | -1 | 2
CCN1CCCC1CNC(=O)c1ccc2c(c1)NC(=O)/C(=C\c1ccccc1Cl)S2 (stereo unspecified) | nt | nt | nt | -19 | -14 | nt | 2 | 0
Cc1[nH]c(=O)c(C#N)c(C)c1CSc1ncccn1 | nt | 2 | i | 7 | -20 | nt | 2 | 3
COC(=O)c1cn(NC(=O)c2cccc(F)c2)c(=O)c2ccccc12 | -2 | -16 | i | -14 | -24 | -4 | -7 | 1
COCCNC(=O)C1(C)CCCN(C(=O)COc2ccccc2)C1 (stereo unspecified) | nt | nt | nt | -29 | -20 | nt | -1 | 6
O=C(CN1C(=O)CSC1=O)c1ccccc1 | 10 | -14 | i | 11 | 16 | 2 | 4 | 11
CC(C)CN1CCC(=O)N(CCN=[N+]=[N-])CC1 | 9 | 3 | i | 14 | 1 | -7 | -1 | 2
CCC(C)NC(=S)N1CCN(C)CC1 (stereo unspecified) | -13 | -11 | i | -4 | nt | -7 | nt | nt
Cc1nn(-c2ccccc2)c(N)c1N=Nc1ccccc1 | -2 | 34 | i | -57 | nt | -8 | 1 | 1
CCN1CCN(c2ccc(S(=O)(=O)N3CCOCC3)cc2NC(=O)/C=C/c2ccc(OC)c(OC)c2)CC1 | nt | -8 | i | 4 | -3 | nt | 2 | 4
CCn1cc(S(=O)(=O)Nc2cccnc2)cn1 | -9 | -12 | i | 0 | -14 | 8 | 2 | 8
O=C(O)c1cccc(NC(=O)c2ccccc2NC(=O)c2cccc([N+](=O)[O-])c2)c1 | 21 | -6 | i | 3 | -2 | 11 | nt | nt
CSc1cccc(NC(=S)Nc2cc(C)ccc2C)c1 | -17 | 13 | i | -22 | -21 | -2 | 2 | 0
COc1ccc(/C=C/C(=O)O)cc1S(=O)(=O)N1CCc2ccccc2C1 | 16 | -12 | i | -4 | nt | 23 | 2 | 5
O=C(CSc1nccn1-c1ccc(F)cc1)NCc1ccc(F)cc1 | -5 | -7 | i | -23 | nt | 8 | -1 | 1
CCCCC(O)(c1ccccc1)C(CN1CCOCC1)c1ccccc1 (stereo unspecified) | -6 | 10 | i | 28 | -11 | 0 | -9 | -10
CCCCn1c(C(C)NC(=O)CCC)nc2ccccc21 (stereo unspecified) | -4 | 2 | i | -69 | -14 | -2 | 1 | 3
O=C(O)/C=C/C(=O)NC1CCS(=O)(=O)C1 (stereo unspecified) | 4 | -17 | i | nt | -13 | -10 | -6 | -1
CCOC(=O)NN1C(=O)c2ccccc2NC1c1cccnc1 (stereo unspecified) | 8 | -15 | i | -14 | -17 | -2 | 3 | 2
Cc1noc(C)c1C(=O)OC(C)C(=O)Nc1ccc(C(N)=O)cc1 (stereo unspecified) | nt | -5 | nt | nt | -25 | nt | 4 | 3

2 entries from above, with values under each structure.
Order of values – PABP FP inh, CSC inhib, Rce1 inhib, Env fusion inh, UUG fidelity, eIF4H FP inh, MT1-MMP act inh, MT1-MMP act inh RFP
- COc1ccc(C(=O)NC2CCCc3c2cnn3-c2cc(F)cc(F)c2)c(OC)n1 (stereo unspecified)
 : -4, 1, i, 3, -12, -2, -3, 4
- COc1cccc(OC)c1C(=O)NCCc1ccccc1
 : nt, -19, i, 2, nt, nt, 2, 7

Continued:
SMILES | PABP FP inh | CSC inhib | Rce1 inhib | Env fusion inh | UUG fidelity | eIF4H FP inh | MT1-MMP act inh | MT1-MMP act inh RFP
COc1cc2ccccc2cc1C(=O)N1CC(C)OC(C)C1 (stereo unspecified) | nt | nt | nt | -22 | -7 | nt | 9 | 2
CCOc1ccc(CNC23CN4CN(CN(C4)C2)C3)cc1 | -4 | 3 | nt | nt | nt | 2 | -4 | -2
O=C(NCCN1CCOCC1)c1ccc(Cl)c(S(=O)(=O)NCc2ccccc2)c1 | nt | -14 | nt | 3 | 20 | nt | nt | nt
Cc1c(Br)cc(C(=O)NCCCN2CCOCC2)c(C)c1C | -12 | -3 | i | nt | -8 | 11 | 3 | 5
Cc1cc(C)c2sc(NC(=O)C3CC3)nc2c1 | -2 | 6 | i | -25 | -1 | -7 | -1 | 2
Cc1cccc(N(CC(=O)N2CCN(C)CC2)S(=O)(=O)c2ccccc2)c1 | -5 | -2 | i | 1 | nt | -3 | 4 | 6
Cc1c(OCC(=O)C(C)(C)C)ccc2c3c(c(=O)oc12)CCCC3 | -8 | 52 | i | 26 | -18 | 1 | 8 | -3
Cc1ccccc1NC1=C(Cl)C(=O)OC1NC(=O)c1ccccc1 (stereo unspecified) | -5 | 2 | i | nt | -32 | -5 | 0 | -1
COc1cccc2cc(-c3n[nH]c(=S)n3C)oc12 | -9 | 4 | i | -2 | -9 | -16 | 2 | -2
COc1ccc(C2CC(=O)C=C(NCCC(C)C)C2)cc1 (stereo unspecified) | 0 | 4 | i | nt | -1 | -3 | -1 | -2
O=C(O)CSc1nc(-c2ccccc2)cc(=O)[nH]1 | 6 | -1 | i | nt | 2 | 5 | 6 | 9
Cc1c(NC(=O)CSc2nncc3ccccc23)c(=O)n(-c2ccccc2)n1C | -13 | -5 | i | -91 | -1 | 2 | 4 | 6
CCOC(=O)/C(=N\Nc1cc(C(F)(F)F)ccc1Cl)N(CC)CC | 8 | 3 | i | -35 | -16 | -12 | -2 | 6
CCOCCCNc1nc(C(F)(F)F)nc2c1nnn2Cc1ccccc1Cl | 12 | -12 | i | 14 | 4 | -3 | -6 | -19
N#Cc1c(NC(=O)c2ccc(N3CCOCC3)c([N+](=O)[O-])c2)sc2c1CCCC2 | -4 | 12 | i | nt | -11 | 9 | 7 | 0
O=C(NCc1ccco1)Nc1cccc([N+](=O)[O-])c1 | 0 | nt | i | -5 | -3 | 2 | 2 | -1
COCCN1C[C@@H](CO)O[C@@H](n2cnc3c(N4CCCC4)ncnc32)C1 | nt | nt | nt | 22 | -37 | nt | 3 | 4
Cc1cccc(NC(=O)CCNS(=O)(=O)c2cccc3nonc23)c1C | 29 | 5 | i | 8 | nt | -1 | nt | nt
COc1ccc(CCNC(=O)CCNS(=O)(=O)c2cccc3nsnc23)cc1OC | 15 | -10 | i | -59 | -10 | 5 | 10 | 10
O=C(CCC(=O)NCc1ccccc1)NCc1ccccc1 | 16 | 3 | i | -12 | -1 | -2 | -1 | 0
Cc1cc(OCCCCCn2ccnc2)cc(C)c1Cl | 0 | 1 | i | 25 | nt | 8 | 0 | -4
CCOc1ccccc1Nc1nnc(SCc2nnc(-c3cc(OC)c(OC)c(OC)c3)o2)s1 | 6 | 60 | i | 12 | 3 | -5 | 11 | -1
COCCn1c(=O)c2c(nc3n2CC(C)CN3CCc2ccccc2)n(C)c1=O (stereo unspecified) | -4 | 2 | i | -1 | -20 | -2 | -5 | 2
CN(C)S(=O)(=O)c1ccc(NS(=O)(=O)/C=C/c2ccccc2)cc1 | 6 | 1 | i | -24 | -18 | 4 | 1 | -3
CC(=O)c1sc(NC(=O)COc2ccc(Cl)cc2Cl)nc1C | -12 | 14 | i | -10 | -12 | -2 | 6 | 2
Cc1ccc(-n2nc(C(=O)O)cc2-c2ccc(Cl)cc2)cc1 | -7 | -6 | nt | 18 | nt | 2 | -2 | -1
OC(CN1CCCCC1)CN(c1ccccc1)c1ccccc1 (stereo unspecified) | -8 | -10 | nt | nt | -15 | -3 | -2 | 5
O=C(/C=C/c1ccc(Cl)cc1)N1CCN(CCN2C(=O)c3cccc4cccc(c34)C2=O)CC1 | nt | nt | nt | -2 | -14 | nt | -2 | -8
O=C(CSc1nc2[nH]ncc2c(=O)[nH]1)Nc1ccccc1 | 44 | -6 | i | 9 | nt | 4 | -1 | 4
COc1ccc(Br)cc1C(=O)Nc1ccc(NC(=O)c2ccco2)cc1 | 4 | -3 | i | nt | -16 | -3 | 1 | 2
CCCCOc1ccc(Cc2cnc(N)nc2N)cc1 | -10 | 50 | nt | 20 | -17 | 2 | -2 | 0
OC[C@H]1O[C@@H](c2nc(-c3nc(-c4ccc(F)cc4)no3)cs2)[C@H](O)[C@@H]1O | nt | nt | nt | 5 | -28 | nt | 5 | -5
CC(=O)N1CCN(C(=O)c2cc(-c3cccc4ccccc34)nc3ccccc23)CC1 | -6 | nt | i | 29 | -2 | -4 | -6 | -2
CCN1C(=O)[C@H]2[C@@H](c3ccc(C(F)(F)F)cc3)N[C@]3(CCCN(Cc4ccc(OC)cc4)C3=O)[C@H]2C1=O | nt | nt | nt | -14 | -1 | nt | 2 | 3
O=C(Cc1ccccc1)Nc1cc([N+](=O)[O-])ccc1N1CCOCC1 | 20 | 5 | i | 12 | 5 | -6 | -2 | -2
